Bioassay records as filed in PubChem BioAssay.
miR-21 reporter: miR-21 reporter, rising signal | 340,000 tested, under 10 active | HeLa miR-21 FLuc reporter, luciferase, 48 h | Potency, µM (titrated, usually from 38.3 µM), inactives show at the highest dose reporter change, positive = more light; active = well fitted rising curve with a large enough effect; inconclusive = small, poorly fitted or top-dose-only effect; inactive = no such curve, though single readings can be large or run the other way;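 note: % of control where 0% means no effect; miR-21 action dims this reporter so a rising signal means less miR-21 action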
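HeLa cells endogenously expressing miR-21, stably carrying CMV-driven firefly luciferase with a downstream miR-21 binding site, 2000 cells/well. Titrations up to approximately 40 uM, 48 hours; luciferase luminescence read.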
Rango complex inh: inhibitors of Rango-importin beta complex formation. Q14974. Rango CFP/YFP FRET sensor + importin beta, 45 min. Potency, µM (titrated, usually from 92.2 µM), inactives show top-dose inhibition of complex formation. 0.031% of 340,000 active. AID 540263; active = rising FRET ratio curve, often small or poorly fitted; inconclusive = mostly compound fluorescence or quenching in the first reads; inactive = flat curves in all reads;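 note: potency is the fitted concentration of half-maximal effect; 0% = DMSO wells and 100% = buffer wells lacking importin beta; nearly all actives have a fitted effect of over 15% in size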
Target sequence (Q14974 whole entry, looked up): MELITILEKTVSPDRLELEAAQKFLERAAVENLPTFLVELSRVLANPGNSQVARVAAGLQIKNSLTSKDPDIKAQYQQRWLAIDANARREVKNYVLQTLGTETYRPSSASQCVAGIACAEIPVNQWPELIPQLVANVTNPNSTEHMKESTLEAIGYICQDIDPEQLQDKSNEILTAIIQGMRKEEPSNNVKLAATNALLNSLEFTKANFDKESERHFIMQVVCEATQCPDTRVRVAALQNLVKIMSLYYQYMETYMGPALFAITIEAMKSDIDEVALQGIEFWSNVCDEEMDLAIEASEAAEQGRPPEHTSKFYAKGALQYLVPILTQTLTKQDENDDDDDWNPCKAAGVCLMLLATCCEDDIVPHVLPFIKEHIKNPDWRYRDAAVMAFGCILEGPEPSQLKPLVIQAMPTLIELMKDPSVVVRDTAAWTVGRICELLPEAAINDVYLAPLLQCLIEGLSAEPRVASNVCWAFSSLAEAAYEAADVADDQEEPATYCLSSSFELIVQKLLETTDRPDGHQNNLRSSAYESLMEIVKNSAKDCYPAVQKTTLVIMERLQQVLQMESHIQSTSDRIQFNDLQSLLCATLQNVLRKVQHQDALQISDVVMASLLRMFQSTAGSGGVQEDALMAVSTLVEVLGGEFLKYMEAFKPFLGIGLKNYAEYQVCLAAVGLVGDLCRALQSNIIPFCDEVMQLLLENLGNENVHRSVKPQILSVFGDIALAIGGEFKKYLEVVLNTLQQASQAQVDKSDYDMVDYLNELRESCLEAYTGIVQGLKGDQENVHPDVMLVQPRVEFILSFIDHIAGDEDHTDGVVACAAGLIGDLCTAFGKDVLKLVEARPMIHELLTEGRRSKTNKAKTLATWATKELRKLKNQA
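FRET biosensor (snurportin 1 IBB flanked by EYFP and cerulean), 50 nM, with compound 5 min, then 0.125 microM importin beta in PBS, 1 mM DTT, 0.02% Tween-20, 0.1% BSA. CFP/YFP ratio read after 45 min at room temperature; pre-read flags interference.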
Rango release inh: inhibition of RanGTP-driven Rango-importin beta dissociation. O95149+P62826. Biochemical FRET Rango-importin beta, RanGTP-induced dissociation. Potency, µM (top dose mostly 46.1 µM), for inactives: top-dose activity change, negative = inhibition. 0.071% of 340,000 active; active means falling FRET ratio curve, often poorly fitted, with flat reads before Ran was added; inconclusive means other falling curves, or compound fluorescence or quenching; inactive means flat or rising ratio curve;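 note: potency is the fitted concentration of half-maximal effect; % of control where 0% means no effect; nearly all actives have a fitted effect of over 45% in size; -100% = wells without RanGTP and RCC1; the record marks most hits as doubtful in a second field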
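Two FRET readings bracket the reaction: one 5 min after compound meets Rango–importin beta, another 45 min after RanGTP-RCC1 (0.6 uM Ran, 0.2 uM RCC1, 2 mM GTP) is added. Only the second defines inhibition.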
GLA inh pH 4.5: blocks human alpha-galactosidase A at pH 4.5; purified enzyme, 4-MU-alpha-Gal fluorescence, pH 4.5; AID 1467; 230,000 tested, under 10 active; P06280; activity change, negative = inhibition, % at 105 µM; inconclusive = small, poorly fitted or top-dose-only inhibition, or a rising curve; inactive = flat fitted curve, though single readings scatter; no compound was filed as active;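 note: 0% = full activity with enzyme and -100% = basal without enzyme; dose as in the result columns while the protocol names 77 µM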
Active calls of the source: *; ? = inconclusive; . = no result given. These rows are one share of the data; count on the stated rates, not on these rows.

SMILES	miR-21 reporter	Rango complex inh	Rango release inh	GLA inh pH 4.5
O=C(Cn1cnc2c(nnn2Cc2ccc(F)cc2)c1=O)NC1CCCC1	-1%	-1.1%	-8%	6
O=C(CSc1ccccn1)Nc1ccc(Br)cn1	-26%	1.2%	27%	-18
CC(C)(CNC(=O)COc1ccccc1Cc1ccccc1)N1CCOCC1	-2%	-6.9%	3%	0
CCOC(=O)c1ccc(NC(=O)c2nc[nH]c2C(=O)NCc2ccccc2)cc1	-3%	-1.4%	5%	4
COc1ccc(C2SCC(C(=O)NCc3ccc(F)cc3)N2C(C)=O)cc1 (stereo not given)	-1%	-2.2%	-10%	-8
Cc1cc(N)n2nc(-c3ccccc3)cc2n1	-12%	-1.7%	-12%	-4
O=C(N/N=C/c1cc(Br)c(Br)o1)c1ccc2c(c1)OCCO2	-36%	-0.2%	-7%	-3
COc1ccc(Cn2c(C3CC3)nc3ccc(NC(=O)c4cccnc4)cc3c2=O)cc1	-13%	1.6%	2%	.
CCCOC1CCCN(C(=O)CCc2nnc(-c3ccc4c(c3)OCO4)o2)C1 (stereo not given)	-50%	4.6%	-5%	.
COC(=O)[C@H](C)NC(=O)NC(C)CCc1ccccc1 (stereo not given in full)	0%	-0.3%	2%	4
Cc1ccccc1OCC(O)Cn1c(=N)n(Cc2ccccc2)c2ccccc21 (stereo not given)	?	0.3%	0%	-5
COc1ccc(C(=O)CC2OC(=O)c3ccccc32)cc1OC (stereo not given)	-14%	-3.0%	3%	-12
CCc1nnc2n1N=C(c1ccccc1)CS2	-2%	-0.7%	23%	.
CCOC(=O)C(Cc1ccccc1)C(=O)Nc1cccc(C)c1 (stereo not given)	0%	-2.3%	3%	1
CC1=C(C(=O)OCC2CCCO2)C(c2ccccc2)C2=C(CCCC2=O)N1 (stereo not given)	6%	?	-6%	-1

Shown with each value named: three of the compounds above
compound: Cc1cc(N)n2nc(-c3ccccc3)cc2n1
  miR-21 reporter = -12%	Rango complex inh = -1.7%	Rango release inh = -12%	GLA inh pH 4.5 = -4
compound: O=C(CSc1ccccn1)Nc1ccc(Br)cn1
  miR-21 reporter = -26%	Rango complex inh = 1.2%	Rango release inh = 27%	GLA inh pH 4.5 = -18
compound: CCOC(=O)C(Cc1ccccc1)C(=O)Nc1cccc(C)c1 (stereo not given)
  miR-21 reporter = 0%	Rango complex inh = -2.3%	Rango release inh = 3%	GLA inh pH 4.5 = 1

Other entries follow:
SMILES	miR-21 reporter	Rango complex inh	Rango release inh	GLA inh pH 4.5
CC(=O)Nc1ccccc1OCC(=O)c1cc(C)n(Cc2cccs2)c1C	-15%	1.9%	-1%	-19
O=C(Nc1nc(-c2ccco2)cs1)c1ccccc1	-16%	?	-15%	5
Clc1ccc(-n2nnnc2-c2cnc3ccc(Cl)cc3c2-c2ccccc2)cc1	0%	0.0%	13%	-9
Cc1ccc(-n2c(-c3cccs3)nc3nc4ccccc4nc32)cc1	1%	.	.	3
Cc1ccc(-n2nc(C)c3c2OC(N)=C(C#N)C3c2ccc(F)cc2)cc1 (stereo not given)	-1%	0.7%	8%	3
COc1ccc(-n2c(C)c(C)c3c(N)ncnc32)cc1	4%	0.7%	-1%	.
COC(=O)Nc1ccc(S(=O)(=O)NCCCCCC(=O)O)cc1	3%	-7.6%	33%	11
CC1OC2C(OC1C)N(S(C)(=O)=O)CCN2S(C)(=O)=O (stereo not given)	-2%	1.3%	2%	2
Cc1ccc(S(=O)(=O)N(CC(=O)Nc2ccccc2-c2ccccc2)c2ccc(C)cc2C)cc1	1%	3.0%	-6%	2
NC(=O)c1oc2ccc(Cl)cc2c1N	0%	3.5%	13%	3
COc1ccccc1C(=O)N1N=C(c2ccc(NS(C)(=O)=O)cc2)CC1c1cccs1 (stereo not given)	-16%	-1.1%	-8%	.
Cc1ccc(Sc2ncccc2COC(=O)NC(C)C)cc1	-61%	0.0%	6%	2
Cc1n[nH]c(C)c1C(=O)CC1(O)C(=O)N(Cc2ccccc2)c2ccc(Br)cc21 (stereo not given)	12%	-5.9%	12%	-4
CCOC(=O)c1sc(NC(=O)CN2C(=O)NC3(CCC(C)CC3)C2=O)c(C(=O)OCC)c1C (stereo not given)	.	-0.1%	1%	.
COc1ccc(C2C(C(=O)c3cccs3)=C(O)C(=O)N2c2cccc(C)n2)cc1OC (stereo not given)	-22%	3.9%	0%	0
Cc1cc(C)c(NN=c2c(=O)c3ccccc3c2=O)c(C)c1	-32%	-3.0%	6%	-13
Cc1ccc(NC(=O)C(c2ccccc2)N2CCN(C(=O)c3ccco3)CC2)cc1 (stereo not given)	.	5.8%	15%	.
O=C(NC(C(=O)c1ccccc1)n1ccc(=O)[nH]c1=O)c1ccccc1 (stereo not given)	-24%	-0.4%	-13%	-2
Cc1nn(-c2ccccc2)c2c1C(c1cccnc1)N1C=C(S(=O)(=O)N3CCCCC3)C=CC1=N2 (stereo not given)	-10%	-0.2%	4%	-8
CC1(C)CC(=O)C2=C(C1)Oc1ncn(CCCn3ccnc3)c(=N)c1C2c1ccccc1 (stereo not given)	-5%	-5.0%	-3%	-4
O=C(CSc1ncccn1)NCc1ccccc1	-25%	2.2%	5%	1
COc1cc(C(=O)Nc2cc(C)ccn2)cc(OC)c1OC	4%	0.1%	18%	15
COc1ccc(/C=C2/SC(=O)N(CC(=O)NCCC(C)C)C2=O)cc1OC	2%	?	?	4
COCCCn1c(C)cc(C(=O)COC(=O)CCc2nc3ccccc3c(=O)[nH]2)c1C	-10%	-0.5%	-11%	5
O=C(/C=C/c1cn(CC(O)CN2CCOCC2)c2ccccc12)c1cccs1 (stereo not given)	1%	.	.	-8
O=C(c1ccco1)N1CCN(S(=O)(=O)c2ccc(Cl)s2)CC1	-5%	-3.9%	-2%	4
CC(C)(C)C(=O)Nc1ccc(Oc2ccc3c(c2)C(=O)N(c2ccc(O)cc2)C3=O)cc1	5%	-0.1%	23%	7
CC1CCC(NC(=O)C2c3ccccc3C(=O)N2CCCN2CCOCC2)CC1 (stereo not given)	1%	0.1%	-13%	-3
CCOCC(=O)Nc1cc(Cl)ccc1C	-3%	?	-9%	-23
O=C(CN1C(=O)C2CC=CCC2C1=O)Nc1ccc(-c2nnc3n2CCCCC3)cc1 (stereo not given)	-2%	?	3%	-2

Just GLA inh pH 4.5, Rango release inh and miR-21 reporter (5 entries from above):
compound | GLA inh pH 4.5 | Rango release inh | miR-21 reporter
COc1ccc(C2C(C(=O)c3cccs3)=C(O)C(=O)N2c2cccc(C)n2)cc1OC (stereo not given) | 0 | 0% | -22%
COc1ccccc1C(=O)N1N=C(c2ccc(NS(C)(=O)=O)cc2)CC1c1cccs1 (stereo not given) | . | -8% | -16%
CC(=O)Nc1ccccc1OCC(=O)c1cc(C)n(Cc2cccs2)c1C | -19 | -1% | -15%
COC(=O)[C@H](C)NC(=O)NC(C)CCc1ccccc1 (stereo not given in full) | 4 | 2% | 0%
CCOC(=O)c1sc(NC(=O)CN2C(=O)NC3(CCC(C)CC3)C2=O)c(C(=O)OCC)c1C (stereo not given) | . | 1% | .

Continuation:
SMILES	miR-21 reporter	Rango complex inh	Rango release inh	GLA inh pH 4.5
N=c1n(CCN2CCCCC2)c2ccccc2n1CC(O)c1ccc(Cl)c(Cl)c1 (stereo not given)	?	1.2%	4%	-13
Cc1ccc(S(=O)(=O)CCC(=O)OCC(=O)N2CCN(S(=O)(=O)c3ccc(Cl)cc3)CC2)cc1	-2%	-3.9%	2%	.
O=S1(=O)CCOC[C@H](CC2CCCCC2)N1Cc1cccc(Cl)c1	9%	-0.3%	14%	.
CCCc1nc2oc3c(NCC4CCCO4)ncnc3c2c2c1COC(C)(C)C2 (stereo not given)	-8%	0.4%	4%	-13
COC(=O)C12CCC(C)(c3nc4ccccc4nc31)C2(C)C (stereo not given)	-9%	-1.6%	-2%	-6
O=C(COc1ccccc1)Nc1ccc(S(=O)(=O)N2CCCC2)cc1	-5%	-2.2%	-14%	6
Cc1ccc(CNC(=O)C(=O)NCC2OCCN2C(=O)c2cccs2)cc1 (stereo not given)	-7%	5.9%	32%	7
CCOC(=O)CS(=O)(=O)c1ccc2ccccc2c1	-5%	5.7%	12%	-2
O=C(NC(=S)Nc1ccccc1[N+](=O)[O-])c1ccccc1Cl	-45%	1.4%	-5%	1
O=C(NCc1nnc(SCC(=O)N2CCCC2)o1)c1ccccc1	0%	5.4%	23%	.
CCOC(=O)CN1C(=O)C(Sc2n[nH]c(-c3ccc(C)cc3)n2)CCc2ccccc21 (stereo not given)	23%	-0.5%	0%	2
c1ccc(CCc2nn3c(Cn4cnc5ccccc54)nnc3s2)cc1	4%	2.7%	5%	2
c1cnc(Oc2ccc3oc4ccccc4c3c2)nc1	-50%	-0.1%	-4%	-4
O=C(c1ccc(Cl)c([N+](=O)[O-])c1)N1CCN(Cc2ccc3c(c2)OCO3)CC1	15%	-0.8%	-11%	-2
C=CCC[C@@H](Cc1ccc(F)cc1)C(=O)OC[C@H](C)NC(=O)[C@@H](CC=C)CC(=O)N(CCO)Cc1ccccc1	.	0.4%	0%	.
CCOC(=O)c1c(NC(=O)CN2CCN(C(=O)c3ccco3)CC2)sc(C(N)=O)c1C	-8%	-1.0%	8%	-5
COc1ccccc1-c1cn[nH]c1-c1ccc(O)cc1O	14%	-3.2%	9%	.
CCOCCn1ccc2c(OCC(=O)Nc3ccccc3OC)cccc2c1=O	.	3.1%	34%	.
CCn1c(C)c2c([n+]1CC)CC(C)(C)CC2=O	4%	-3.3%	0%	-8
Cc1c(C)n(Cc2ccccc2)c2ccc(C(=O)O)cc12	.	-0.5%	2%	.
CC1(C)C(=O)C2(CCCCC2)C(=O)OC1c1cccn1-c1ccc([N+](=O)[O-])cc1 (stereo not given)	-3%	-3.1%	12%	0
O=C(C1CCN(S(=O)(=O)c2ccc3ccccc3c2)CC1)N1CCN(c2ncccn2)CC1	12%	0.5%	0%	3
CCCCNC(=O)c1cc2c(=O)n3cccc(C)c3nc2n1C	-9%	.	.	7
O=C(/C=C/Nc1ccccc1)c1ccc(Oc2ncccn2)cc1	-52%	-1.7%	?	-1
O=C(O)/C=C/c1ccc(-c2cccc(C(F)(F)F)c2)o1	-23%	0.1%	4%	-5
O=C(Nc1ccccc1)P(=O)(O)c1ccccc1	.	-3.0%	6%	.
COc1cccc(C(=O)NCc2ccc3c(c2)OCO3)c1	-12%	-2.3%	8%	.
Cc1csc2nc(CNS(=O)(=O)c3ccc(-c4ccccc4)cc3)cn12	-2%	2.7%	1%	5
CCCN(CC(=O)Nc1cc(Cl)ccc1Cl)C(=O)c1ccc(N2CCCC2=O)cc1	.	-2.3%	-6%	.
Cc1ccccc1CN1C(=O)c2ccccc2Sc2ccc(C(=O)NCCN3CCOCC3)cc21	6%	?	-11%	.
CCCCC/C=C/C1=CC(=O)C[C@H](c2ccc(Cl)cc2)C1	.	-0.3%	-32%	.
CSc1nn(CCc2ccncc2)c(=S)s1	-10%	0.3%	1%	-8
Cc1cc(C(=O)CN2C(=O)NC3(CCCCCC3)C2=O)c(C)n1C	.	-1.3%	-7%	.
CC(C)CN(/C=N/c1sc2c(c1C#N)CCCCC2)CC(C)C	-1%	-3.7%	0%	7
O=C(Nc1cccc(-n2cnnn2)c1)c1ccccc1Br	3%	0.7%	15%	.
COc1cc(OC)cc(-c2n[nH]c(=S)n2-c2ccc3c(c2)OCO3)c1	-14%	4.2%	-4%	2
CCC(C)C(=O)Nc1nnc(SCC(=O)Nc2ccccc2F)s1 (stereo not given)	-3%	-3.3%	11%	-16
FC(F)(F)c1cc(NCc2cccs2)n2ncnc2n1	-15%	-3.4%	0%	2
O=C(CCn1c(=O)oc2ccccc21)NCc1cccs1	-12%	5.5%	11%	10
COC(=O)[C@@H](NC(=O)Nc1ccc2c(c1)OCCO2)C(C)C	-2%	-3.9%	-4%	7
CCS(=O)CCSc1nc2ccccc2s1 (stereo not given)	-26%	-3.6%	-11%	7
CNC(=O)c1sccc1S(=O)(=O)Cc1c(Cl)cccc1Cl	1%	-0.3%	20%	7
O=C(C1CCN(S(=O)(=O)c2ccccc2)CC1)N1CCN(Cc2ccc3c(c2)OCO3)CC1	7%	-0.3%	13%	.
O=c1[nH]c(N2CCN(Cc3ccccc3)CC2)nc2c1CCC2	4%	0.6%	6%	9
CC(=O)Nc1ccc(C(=O)OCC(=O)c2ccc(S(=O)(=O)N3CCCCC3)cc2)cc1	.	6.7%	3%	.
